# From PubChem BioAssay
# Rango-impB inh – qHTS Assay for Inhibitors of Rango (Ran-regulated importin-beta cargo) - Importin beta complex formation | Importin subunit beta-1 (Homo sapiens), Q14974 | Rango CFP/YFP FRET sensor + importin beta, 45 min | Potency, µM (series often up to 92.2 µM), without a hit: at the highest dose inhibition of complex formation | 0.031% of 340,000 active | AID 540263, 2011; active = rising FRET ratio curve, often small or poorly fitted; inconclusive = mostly compound fluorescence or quenching in the first reads; inactive = flat curves in all reads;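 also: potency is read from the fitted curve at half-maximal effect; 0% = DMSO wells and 100% = buffer wells lacking importin beta; nearly all actives have a fitted effect of over 15% in size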
# Target sequence (Q14974 whole entry, looked up): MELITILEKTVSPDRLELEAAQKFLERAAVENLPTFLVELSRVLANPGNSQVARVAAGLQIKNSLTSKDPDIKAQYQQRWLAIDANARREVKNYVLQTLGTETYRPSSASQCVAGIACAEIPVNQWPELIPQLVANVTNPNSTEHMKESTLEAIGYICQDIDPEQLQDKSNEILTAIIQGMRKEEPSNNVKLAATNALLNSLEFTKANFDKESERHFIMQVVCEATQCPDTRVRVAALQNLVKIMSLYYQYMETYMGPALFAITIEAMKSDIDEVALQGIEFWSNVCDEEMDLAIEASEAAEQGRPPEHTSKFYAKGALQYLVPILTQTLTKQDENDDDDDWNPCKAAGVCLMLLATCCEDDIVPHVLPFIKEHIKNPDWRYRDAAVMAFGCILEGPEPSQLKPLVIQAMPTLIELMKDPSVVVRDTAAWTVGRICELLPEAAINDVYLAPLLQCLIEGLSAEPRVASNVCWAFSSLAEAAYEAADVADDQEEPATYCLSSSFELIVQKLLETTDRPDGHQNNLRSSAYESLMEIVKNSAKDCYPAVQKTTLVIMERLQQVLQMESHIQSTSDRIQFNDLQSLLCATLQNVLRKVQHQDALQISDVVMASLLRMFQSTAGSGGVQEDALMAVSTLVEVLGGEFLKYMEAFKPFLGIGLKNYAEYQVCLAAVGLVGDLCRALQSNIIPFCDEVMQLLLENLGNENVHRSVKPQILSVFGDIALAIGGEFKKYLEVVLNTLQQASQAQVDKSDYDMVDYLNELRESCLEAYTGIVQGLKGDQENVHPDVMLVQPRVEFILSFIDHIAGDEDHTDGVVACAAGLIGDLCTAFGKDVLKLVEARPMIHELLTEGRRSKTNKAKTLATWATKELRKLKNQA
#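 FRET biosensor Rango (snurportin 1 IBB between N-terminal EYFP and C-terminal Cerulean), 50 nM in PBS/1 mM DTT/0.02% Tween-20/0.1% BSA, preincubated 5 min RT with compound; 0.125 microM importin beta added, 45 min RT, CFP/YFP FRET ratio read.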
# miR-21 reporter – qHTS Assay for Modulators of miRNAs and/orActivators of miR-21. HeLa miR-21 FLuc reporter, luciferase, 48 h. Potency, µM (highest dose often 38.3 µM), for the others: top-dose reporter change, positive = more light. 340,000 tested, under 10 active. AID 2288, 2010; active = well fitted rising curve with a large enough effect; inconclusive = small, poorly fitted or top-dose-only effect; inactive = no such curve, though single readings can be large or run the other way;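 also: % of control where 0% means no effect; miR-21 action dims this reporter so a rising signal means less miR-21 action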
#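 HeLa cells endogenously expressing miR-21, stably carrying CMV-driven firefly luciferase with a downstream miR-21 binding site, 2000 cells/well. Titrations up to approximately 40 uM, 48 hours; luciferase luminescence read.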
# Rango release inh – qHTS Assay for Inhibitors of RanGTP induced Rango (Ran-regulated importin-beta cargo) - Importin beta complex dissociation; Snurportin-1 (Homo sapiens) + GTP-binding nuclear protein Ran (Homo sapiens) + Importin …; Biochemical FRET Rango-importin beta, RanGTP-induced dissociation; Potency, µM (top dose mostly 46.1 µM), without a hit: at the top dose activity change, negative = inhibition; 0.071% of 340,000 active; AID 540253, 2011; active means falling FRET ratio curve, often poorly fitted, with flat reads before Ran was added; inconclusive means other falling curves, or compound fluorescence or quenching; inactive means flat or rising ratio curve;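 also: potency is read from the fitted curve at half-maximal effect; % of control where 0% means no effect; nearly all actives have a fitted effect of over 45% in size; -100% = wells without RanGTP and RCC1; the record marks most hits as doubtful in a second field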
#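 Rango FRET biosensor (snurportin-1 IBB flanked by N-terminal EYFP and C-terminal CFP10) at 0.1 uM, with 0.25 uM importin beta in PBS, 1mM DTT, 0.02% Tween-20, 0.1% BSA. 0.6 uM Ran, 2mM GTP and 0.2 uM RCC1 were then added for 45 min at room temperature. Inhibition read as loss of FRET rise.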
# GLA inh pH 4.5 – qHTS Assay for Inhibitors of Human alpha-Galactosidase at pH 4.5 | Alpha-galactosidase A (Homo sapiens), P06280 | activity change, negative = inhibition, % at 105 µM | purified enzyme, 4-MU-alpha-Gal fluorescence, pH 4.5 | AID 1467, 2008 | 230,000 tested, under 10 active; inconclusive = small, poorly fitted or top-dose-only inhibition, or a rising curve; inactive = flat fitted curve, though single readings scatter; no compound was filed as active;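 also: 0% = full activity with enzyme and -100% = basal without enzyme; dose as in the result columns while the protocol names 77 µM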
# An asterisk follows results filed as active; ? = inconclusive; · = not tested or not shown; & = joins results of further samples. These rows are one share of the data; the hit share may differ from the screen's.
item	mol	Rango-impB inh	miR-21 reporter	Rango release inh	GLA inh pH 4.5
1	COC(=O)CCN1CCN(S(=O)(=O)c2cccc(Br)c2)CC1	0.9%	4%	1%	-1
2	O=C1CN(C(=O)CSc2nc3ccccc3n2CCc2ccccc2)c2ccccc2N1	-1.6%	-4%	3%	-9
3	CCSc1nnc(NC(=O)CC)s1	-1.7%	-12%	?	1
4	CCCN(C(=O)c1cccs1)c1c(N)n(Cc2ccccc2)c(=O)[nH]c1=O	2.5%	·	-15%	·
5	Cc1nn(C)cc1CNC(=O)c1ccccc1Br	4.9%	-1%	0%	-10
6	Cc1ccc(S(=O)(=O)CC(=O)N(C)C)cc1	-1.2%	1%	1%	-4
7	O=C(CSc1ccccc1F)NC(=O)c1ccccc1Br	-3.0%	·	-17%	·
8	CCCCN(C)CCCNC(=O)CN1C(=O)CSc2ccc(S(=O)(=O)N3CCOCC3)cc21	8.7%	0%&-1%	7%	7
9	O=C(Nc1cccc(C(F)(F)F)c1)C(Sc1ncnc2ccccc12)c1ccccc1 (stereo not given)	0.0%	-18%	-24%	2
10	Cc1ccc(Cn2cccc(NC(=O)c3ccco3)c2=O)cc1	-0.3%	-28%	8%	10
11	CC(C)Cn1c(C(C)C)nc([N+](=O)[O-])c1S(=O)(=O)c1ccc(F)cc1	7.0%	29%	17%	-6
12	CCN(CC)CCNC(=O)c1c(O)c2cccc3c2n(c1=O)CCC3	1.3%	-30%	8%	-10
13	CC1CCCN(C(=O)CSc2nnc3ccccn23)C1 (stereo not given)	-0.6%	·	25%	·
14	COCCCn1c(SCCc2ccccc2)nc2cc(OC)c(OC)cc2c1=N	2.7%	10%	3%	-9
15	Cc1cc(C)n2nc(SCC(=O)Nc3ccccc3F)nc2n1	0.4%	·	10%	·
16	CN(Cc1cccnc1)Cc1cn(C)nc1-c1cccc(Cl)c1	-0.5%	-15%	20%	2
17	COc1ccc(-n2c(C)nn(C)c2=O)cc1	-2.4%	-3%	7%	-25
18	O=C(CCCC1=NS(=O)(=O)c2ccccc2N1)OCc1ccc(Cl)cc1	-0.7%	2%	-3%	·
19	CCN(CC)CCC(c1ccc2c(c1)OCO2)c1c(OC)cc(OC)c2c(-c3ccccc3)cc(=O)oc12 (stereo not given)	?	18%	23%	-12
20	O=C(NN1C(=O)c2ccc(-c3ccc4c(c3)C(=O)N(NC(=O)c3cccnc3)C4=O)cc2C1=O)c1cccnc1	0.3%	-3%	2%	-25

# The list continues.
item	mol	Rango-impB inh	miR-21 reporter	Rango release inh	GLA inh pH 4.5
21	CC(C)=CCN1CCN(Cc2cccn2-c2ncccn2)CC1CCO (stereo not given)	?	-1%	0%	7
22	COc1ccc2c(CN(C)c3ccccc3)cc(=O)oc2c1	3.1%	-10%	-14%	-4
23	COc1ccc(Nc2nc(C)cc(C)n2)cc1Cl	-0.5%	-52%	-1%	·
24	O=C(O)CC(=O)Nc1ccccc1C(=O)O	1.4%	-3%	11%	6
25	COc1cccc(NC(=O)CN(C)C(=O)Cn2cnc3ccccc3c2=O)c1	-0.9%	·	0%	·
26	O=C(CC1CCCCC1)NCC1CCCO1 (stereo not given)	1.1%	-13%	-10%	3
27	CCC(C)(C(=O)NC1CCCC1)N(Cc1ccco1)C(=O)Cc1cccs1 (stereo not given)	7.7%	1%	4%	12
28	Cc1ccc(/C=C/C(=O)C2C(=O)c3ccccc3C2=O)cc1	1.3%	-5%	-5%	-1
29	COc1ccc(CCNCc2ccc(OCc3ccc(Cl)nc3)c(OC)c2)cc1OC	-2.0%	-5%	2%	-1
30	O=C(CCc1ccccc1)N1CCN(Cc2ccc(F)cc2Cl)CC1	-2.1%	-1%	-2%	·
31	COc1ccc(N2C(=O)c3ccccc3NC23C(=O)N(C)c2ccccc23)cc1 (stereo not given)	0.3%	-14%	25%	-2
32	Cc1ccc(S(=O)(=O)N2CCCC2C(=O)OCc2nc3sc(C)c(C)c3c(=O)[nH]2)cc1 (stereo not given)	-0.5%	-4%	1%	-4
33	N#Cc1cc(NC(=O)c2ccc(F)cc2)c(=O)n2c1[nH]c1ccccc12	·	1%	·	-1
34	Cc1cc(C)n2nc(S(=O)(=O)N(C)Cc3ccccc3)nc2n1	4.3%	-3%	1%	-14
35	CSc1ccc(S(=O)(=O)NC2CCCCC2)cc1	0.0%	-5%	18%	6
36	O=S(=O)(c1ccc(Br)cc1)c1nc(-c2ccccc2)oc1NCCN1CCOCC1	6.0%	0%	11%	·
37	COC(=O)c1c(C)oc(C)c1S(=O)(=O)NCc1ccc(Cl)cc1	2.7%	-6%	-4%	-2
38	C/C=C/c1ccc(OCCOc2ccc(C=O)cc2OC)c(OC)c1	1.0%	-9%	-4%	5
39	O=C(Cn1cnc2ccccc21)c1ccccc1	-4.0%	-17%	-14%	·
40	CC(C)Cn1c2c(c(O)c(C(=O)Nc3nc4ccccc4s3)c1=O)CCCC2	2.6%	-13%	-12%	-1

# More compounds.
item	mol	Rango-impB inh	miR-21 reporter	Rango release inh	GLA inh pH 4.5
41	O=C(CSc1nnnn1-c1ccc(O)cc1)NC1CCCCC1	-1.2%	1%	2%	·
42	COc1ccc(CC(=O)N2N=C(c3ccncc3)CC2(O)C(F)(F)F)cc1 (stereo not given)	4.2%	15%	3%	-4
43	O=C(Oc1coc(CSc2ncccn2)cc1=O)c1ccco1	3.4%	-7%	17%	7
44	CC(C)CCNC(=O)C(C)N(Cc1ccc(F)cc1)C(=O)c1ccc(CN2CCCCC2)o1 (stereo not given)	-2.8%	-9%	-10%	-1
45	CCCCNC(=O)N(C)c1nc2ccccc2s1	-9.5%	-68%	-2%	8
46	Cc1cc(C)c2nc(N(CCCN(C)C)C(=O)c3ccc(S(=O)(=O)N4CC(C)OC(C)C4)cc3)sc2c1 (stereo not given)	4.6%	·	15%	·
47	CC(c1n[nH]c(=S)n1-c1ccc(Cl)cc1)N(C)C (stereo not given)	1.9%	1%	-14%	-10
48	Cc1cc(N2C(=O)c3ccc(C(=O)Nc4ccc(O)cc4C(=O)O)cc3C2=O)no1	1.9%	-1%	6%	·
49	c1ccc(-c2cc3c(N4CCN(c5ccccc5)CC4)ncnc3s2)cc1	3.0%	1%	5%	8
50	CCOC(=O)N1CCN(CC(=O)Nc2c(C(=O)OC)[nH]c3cc(C)ccc23)CC1	4.7%	-5%	11%	6
51	CC(C)=CCCC(C)CN1CCC(N2CCC(C(=O)N3CCCC3)CC2)CC1 (stereo not given)	0.6%	9%	0%	·
52	CCOCCn1c(=O)c2c(nc3n2CC(C)CN3CCc2ccccc2)n(C)c1=O (stereo not given)	-0.1%	-1%	34%	·
53	COc1ccc(CC(=O)OC(C)CN2CCCC2)cc1 (stereo not given)	1.2%	-6%	0%	2
54	Cc1ccccc1C(=O)NC(=S)Nc1sc2c(c1C#N)CCC(C)C2 (stereo not given)	-0.2%	-30%	-1%	-11
55	Cc1cc(C(=O)COC(=O)c2nn(C)c(=O)c3ccccc23)c(C)n1C	-0.5%	·	0%	·
56	CCc1nc2ccccc2n1CC(=O)NC1CCS(=O)(=O)C1 (stereo not given)	-0.2%	·	-5%	·
57	CN(CCCNC(=O)C1CCC(CNS(=O)(=O)c2ccccc2)CC1)Cc1ccccc1 (stereo not given)	-0.2%	4%	1%	·
58	C#CCOCCOCCOCCNc1nc(N2CCN(C(=O)Cn3cc(CCO)nn3)CC2)nc(N2CCN(C(=O)[C@H]([C@@H](C)CC)n3cc(CCCCN)nn3)CC2)n1	2.9%	·	8%	·
59	Cc1cc(C(F)F)n2ncc(C(=O)NCCc3ccc(Cl)cc3)c2n1	6.8%	-16%	4%	3
60	Cc1cc(C)c(NS(=O)(=O)c2ccc3c(c2)NC(=O)CCS3)c(C)c1	4.3%	9%&9%	13%	·

# Random excerpt: 3 entries already listed, in no set order.
item	mol	Rango-impB inh	miR-21 reporter	Rango release inh	GLA inh pH 4.5
51	CC(C)=CCCC(C)CN1CCC(N2CCC(C(=O)N3CCCC3)CC2)CC1 (stereo not given)	0.6%	9%	0%	·
47	CC(c1n[nH]c(=S)n1-c1ccc(Cl)cc1)N(C)C (stereo not given)	1.9%	1%	-14%	-10
50	CCOC(=O)N1CCN(CC(=O)Nc2c(C(=O)OC)[nH]c3cc(C)ccc23)CC1	4.7%	-5%	11%	6

# (list continues)
item	mol	Rango-impB inh	miR-21 reporter	Rango release inh	GLA inh pH 4.5
61	Cc1ccccc1OCCC(=O)Nc1ccc(Cl)cc1F	0.2%	-29%	-10%	-9
62	CCc1nn(C(CC)C(=O)NCc2cccc(OC)c2OC)c(=O)c2cc3occc3n12 (stereo not given)	4.5%	-9%	-9%	·
63	COc1ccc(Nc2cnn(-c3nc4ccccc4s3)c(=O)c2Cl)cc1	3.4%	-35%	12%	-4
64	Cc1c(NC(=O)Nc2ccccc2C(F)(F)F)c(=O)n(-c2ccccc2)n1C	-0.8%	1%&3%	-6%	·
65	COc1ccc(-c2nc(-c3ccc4c(c3)OCO4)[nH]c2-c2ccc(OC)cc2)cc1	-6.3%	13%	-7%	2
66	O=C(Nc1ccccc1C(F)(F)F)c1cc(-c2cccc(O)c2)on1	0.2%	-30%	-12%	0
67	Cc1c(C(=O)Nc2ccc3c(c2)CCC3)cccc1[N+](=O)[O-]	5.2%	-56%	-16%	1
68	CCOc1ccc2nc(C(=O)N3CCCC(C)C3)sc2c1 (stereo not given)	-2.7%	-67%	-8%	-10
69	COCCNC(=O)/C(C#N)=C\c1ccc(CNS(=O)(=O)c2ccc(C)cc2)o1	6.6%	1%	29%	-2
70	COc1ccc(N2CCN(C(=O)c3ccc(CS(=O)(=O)c4ccc(OC)cc4)o3)CC2)cc1	0.6%	3%	23%	-2
71	CCOc1ccccc1NC(=O)C1CCCN(C(=O)Nc2ccccc2)C1 (stereo not given)	?	-13%	1%	0
72	CC(C)(C)OC(=O)C[C@@H]1C/C=C\C[C@H](CC(=O)NCCO)C(=O)N[C@@H](Cc2ccccc2)COC1=O	5.3%	·	7%	·
73	COc1ccc2c(Cl)c(C(=O)NCCc3ccc(S(N)(=O)=O)cc3)sc2c1	-3.5%	1%	12%	·
74	N#C/C(=C\c1ccncc1)c1nc2ccccc2[nH]1	?	-33%	?	1
75	CCOC(=O)c1nn(-c2ccccc2F)c2nc(Nc3ccccc3)cc(=O)n12	0.8%	-8%	-12%	11
76	COc1ccc(-c2noc(N3CCC(C(=O)Nc4ccc(OC)cc4OC)CC3)n2)cc1	1.4%	-4%	-2%	·
77	O=C(CCCCCNC(=O)N1CCn2c1nc1ccccc12)NCCc1ccccc1	1.8%	-4%	-7%	·
78	O=C(COc1cccc(F)c1)NNC(=O)Cc1ccc(Br)cc1	-3.7%	·	6%	·
79	CCOC(=O)c1c(C)[nH]c(NC(=O)Nc2c(C)n(C)n(-c3ccccc3)c2=O)c1C	1.4%	-5%	5%	-3
80	CCc1ccccc1NC(=S)/N=C(\N)Nc1nc(C)c2cc(C)ccc2n1	9.0%	10%	19%	2

# (next part)
item	mol	Rango-impB inh	miR-21 reporter	Rango release inh	GLA inh pH 4.5
81	COCCN1C(=S)NC(c2cccc(C(F)(F)F)c2)C(C(=O)N2CCOCC2)=C1C (stereo not given)	-0.6%	0%	0%	0
82	Cc1cccc(NC(=O)C2CCCN2C(=O)NC2CCCCC2)c1 (stereo not given)	-3.1%	1%	-3%	0
83	Cc1ccc(N2CC(C(=O)OCC(=O)C(C)(C)C)CC2=O)cc1 (stereo not given)	-0.7%	-1%	13%	0
84	COc1ccc(C(=O)COc2ccccc2C#N)cc1	2.7%	-68%	1%	-7
85	COc1ccc(NC(=O)c2cc(-c3ccccn3)nc3ccccc23)c(OC)c1	-0.9%	·	-16%	·
86	O=C(Nc1ccc(N2CCCCC2)cc1)C1CCCN1S(=O)(=O)c1ccc(F)cc1 (stereo not given)	-3.7%	·	-11%	·
87	Cc1ccc(C(=O)Nc2cccnc2)cc1S(=O)(=O)N1CCOCC1	3.4%	-4%	-4%	5
